Screening results (PubChem)
Ecoli rRNA inh: inhibitors of bacterial rRNA selective over humanized ribosomes; GFP signal change (wild-type ribosome), % (concentration not given with the values); 350,000 tested, 1.6% active; E. coli WT GFP vs humanized-ribosome RFP mutants, fluorescence, 24 h; stronger effect = lower value; DMSO median 0, no signal -100;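 active = significant combined selectivity score with lowered wild-type GFP, culture density cut under 30%, mutant RFP and density less affected; inactive = any of these conditions unmet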; note: one replicate is shown; some compounds called inactive have numbers as strong as hits
E coli growth: blocks Escherichia coli growth. OD600, 23 h; stronger effect = lower value. OD600 absorbance (test concentration not listed). 330,000 tested, 0.21% active;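 active = OD600 absorbance below the run mean of sample wells minus 3.6 SD, in any replicate, cut at about 0.56 in these data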;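 note: stock transfer was 300 nL into about 60 µL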
HNF4A DNA FP: change in binding of human HNF4 alpha to DNA; HNF4a-FITC DNA binding, fluorescence polarization, 1 h; activity change, % at 10 µM; 360,000 tested, 0.3% active; in the data active = activity change above about 30%, passing the limit was not always enough;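 note: controls were the assay level and a saturating level of protein; the project sought stronger binding though the title names inhibitors; some compounds called inactive have numbers as strong as hits; positive values seem to mean higher polarization but the record does not say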
FGF22 binding: shifts melting point of recombinant human FGF22 | Q9HCT0 | recombinant FGF22 thermal shift, SYPRO orange fluorescence; percent of sucrose octasulfate shift, DMSO zero | 340,000 tested, 1.5% active | calls only at 9.99 µM;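 active = melting point raised past a set limit in the mean and every replicate; three in four hits are not shown here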
Target sequence (Q9HCT0 whole entry, looked up): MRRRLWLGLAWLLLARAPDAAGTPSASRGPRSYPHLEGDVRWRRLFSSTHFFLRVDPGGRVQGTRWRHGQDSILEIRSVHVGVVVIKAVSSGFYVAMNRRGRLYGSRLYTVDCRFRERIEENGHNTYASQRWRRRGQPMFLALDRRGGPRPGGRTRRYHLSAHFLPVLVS
UCH37 inh: inhibitors of human deubiquitinating enzyme UCH37; inhibition, % (no concentration beside the values); 330,000 tested, 0.33% active; purified proteasome/UCH37, Ub-AMC cleavage fluorescence;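 active = mean of two replicates above 20%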;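 note: 0% = compound-free wells with enzyme and 100% = wells lacking proteasome; stock transfer was 100 nL into about 20 µL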
Target sequence (Q9Y5K5 whole entry, looked up): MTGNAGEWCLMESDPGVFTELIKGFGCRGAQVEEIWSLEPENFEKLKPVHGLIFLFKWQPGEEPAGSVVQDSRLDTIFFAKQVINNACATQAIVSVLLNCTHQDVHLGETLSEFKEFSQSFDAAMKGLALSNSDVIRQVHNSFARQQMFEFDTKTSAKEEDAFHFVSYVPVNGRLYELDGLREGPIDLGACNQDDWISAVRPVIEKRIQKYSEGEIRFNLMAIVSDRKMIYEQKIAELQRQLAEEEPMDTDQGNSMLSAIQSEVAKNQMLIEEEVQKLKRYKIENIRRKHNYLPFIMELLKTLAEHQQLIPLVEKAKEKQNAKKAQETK
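Material: human UCH37 enzyme supplied as purified proteasome complex. Measure: % inhibition of Ub-AMC cleavage fluorescence. Medium: pH 7.4 Tris-HCl (50 mM) with ovalbumin, ATP-MgCl2, DTT. Times: 30 min preincubation with enzyme, 25 min cleavage at room temperature. Detection: AMC fluorescence intensity at 355/460 nm.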
ALR H2O2 inh: inhibitors of human sulfhydryl oxidase ALR. 290,000 tested, 3.8% active. P55789. purified ALR, DTT oxidation, H2O2 HRP-luminol luminescence. AID 485317. inhibition, % (no concentration beside the values);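 active = mean and each replicate at 75% or more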;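 note: stock transfer was 7.5 nL into about 7.5 µL; 0% = neutral wells and 100% = wells with inactivated enzyme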
Beta2AR agonist: human beta-2 adrenergic receptor agonism by FAP; P07550; response, % (no concentration beside the values); AID 504454; 340,000 tested, 0.43% active; Am2.2-beta2AR cells, FAP receptor internalization, flow cytometry; reference of the scale not given here;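 active = response above a set limit, near 3 SD of response in nonfluorescent compounds, cut at about 42% in these data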;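 note: stock transfer was 100 nL into about 11 µL; a reference agonist was the positive control; negative values mostly stem from fluorescent compounds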
Target sequence (P07550 whole entry, looked up): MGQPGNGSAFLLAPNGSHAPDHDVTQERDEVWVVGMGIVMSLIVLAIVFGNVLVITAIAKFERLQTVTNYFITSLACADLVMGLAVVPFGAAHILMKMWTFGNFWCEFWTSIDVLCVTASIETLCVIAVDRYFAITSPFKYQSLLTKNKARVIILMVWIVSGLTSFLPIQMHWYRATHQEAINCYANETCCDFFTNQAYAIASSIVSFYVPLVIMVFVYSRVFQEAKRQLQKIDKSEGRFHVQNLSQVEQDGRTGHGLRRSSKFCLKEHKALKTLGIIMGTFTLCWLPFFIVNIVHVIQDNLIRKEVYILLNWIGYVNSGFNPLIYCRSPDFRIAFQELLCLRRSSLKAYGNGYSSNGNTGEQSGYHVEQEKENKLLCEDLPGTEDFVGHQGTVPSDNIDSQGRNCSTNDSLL
Ecoli rRNA inh OD600: recorded beside Ecoli rRNA inh, whose call it bears; OD600 change, %; measured here: OD600 growth;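 optical density of the mix in the first replicate; 0 = DMSO median and -100 = no signal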
Ecoli rRNA inh RFP: further read-out of Ecoli rRNA inh, marked with its call; RFP signal change, %; measured here: RFP humanized mutant strains;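 first replicate; 0 = DMSO median and -100 = no signal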
* = called active by the depositor; i = inactive; nt = no result given; & = joins results of further samples. This is a subset; count on the stated rates, not on these rows.

SMILES	Ecoli rRNA inh	Ecoli rRNA inh OD600	Ecoli rRNA inh RFP	E coli growth	HNF4A DNA FP	FGF22 binding	UCH37 inh	ALR H2O2 inh	Beta2AR agonist
Cc1nc2ccc(NC(=O)c3cnc(Cl)c(Cl)c3)cc2s1	5	13	2.8	0.69	1.4	i	-36	-2	-4
O=C(c1c(Cl)nc2sccn12)N1CCCc2ccccc21	nt	nt	nt	0.71	1.2	nt	3.2	-2	2
O=C(Nc1nc2ccc3ccccc3c2s1)c1ccc(N2CCCCC2)c([N+](=O)[O-])c1	3	1	-9.6	0.74	-7.1	i	7.2	nt	5
COc1ccccc1NC(=O)C(C)OC(=O)CCNS(=O)(=O)c1cccc(C(F)(F)F)c1 (stereo unspecified)	-7	2	-2.0	0.69	-0.8	i	2.1	nt	0
C=C(C)C(=O)Oc1ccc(N2C(=O)[C@@H]3C4C=CC(C4)[C@@H]3C2=O)cc1	7	5	10	0.65	-1.7	i	1.5	-7	9
Cc1ccc(-c2csc(NC(=O)C[n+]3cc(-c4ccc(C)cc4)n4c3CCC4)n2)cc1	-53	-66	-14	0.55	-0.6	i	7.4	-4	3
O=C(COC(=O)Cc1cccc(C(F)(F)F)c1)Nc1cccc2ccccc12	nt	nt	nt	0.7	1.2	nt	1.4	6	-6
O=C(COc1ccccc1)Nc1cc(Cl)ccc1Cl	10	13	8.3	0.65	0.9	i	1.9	-4	0
Cc1ccc(NC(=O)CN(C)C(=O)c2cccc(S(=O)(=O)N3CCc4ccccc43)c2)cc1	-3	-27	-2.0	0.69	1.3	i	2.4	0	3
CCOc1cc(C=O)ccc1OCc1cc(=O)n2cc(C)ccc2n1	4	15	0.7	0.72	-0.6	i	-22	nt	-2
CCCCNc1ccc(C(CC(N)=O)NC(=O)c2cc(C)cc(C)c2)cc1[N+](=O)[O-] (stereo unspecified)	8	1	13	0.71	1.1	i	0.5	nt	-7
Cc1ccccc1C(=O)Nc1nnc(-c2ccncc2)o1	-33*	-23*	-3.7*	0.73	5.3	i	0.3	0	2
O=C(NN=C1CCCCCC1)c1cc(-c2ccccc2)nc2ccccc12	nt	nt	nt	0.65	-1.5	nt	0.7	-9	-12
Cc1cc(C)cc(NC(=S)N2CCC(NC(=O)c3ccc(F)cc3)CC2)c1	3	6	-2.3	0.67	3.0	i	1.4	2	-6
CCCC1CCc2c(sc(N)c2C(N)=O)C1 (stereo unspecified)	nt	nt	nt	0.76	2.6	nt	-5.7	nt	-4
CCCC(=O)Nc1cc(-c2nn(C)c(=O)c3ccccc23)ccc1OC	-29	-31	-14	0.65	2.1	nt	2.1	-2	-24
Cn1cc(CN2CCCC(C(=O)Nc3ccc(-c4cccc(F)c4)cc3)C2)cn1 (stereo unspecified)	-5	-5	1.8	0.7	1.7	i	2.6	-15	9
O=C(CCS(=O)(=O)c1ccc(F)cc1)Nc1nnc(-c2ccc(F)cc2)o1	2	-1	-1.0	0.66	1.6	i	1.2	4	3
O=C(CCl)N(c1ccccc1)C1CCCCC1	-23	-6	-9.1	0.69	-0.5	i	2.2	2	7
COc1cc2nc(CN3CCC(C(O)(c4ccccc4)c4ccccc4)CC3)[nH]c(=O)c2cc1OC	3	2	1.3	0.7	2.0	i	0.9	19	14
COc1ccc(-c2cc3ccc(OCC(N)=O)cc3oc2=O)cc1OC	10	11	0.6	0.7	1.1	i	-21	-11	1
COc1ccc(C2CC(c3ccc(OC)cc3)n3nc(NS(C)(=O)=O)nc3N2)cc1 (stereo unspecified)	11	8	1.2	0.68	-0.4	i	3.2	-3	11
Cc1cc(C)nc(SCNC(=O)c2ccc(F)cc2)n1	14	8	3.6	0.73	-0.2	nt	1.8	-2	3
CCCCn1c(=O)n(CC(=O)Nc2ccc(C)c(Cl)c2)c(=O)c2c1ncn2Cc1ccco1	nt	nt	nt	0.78	4.5	nt	2.1	2	3
Cc1ccccc1OCCCCCn1ccnc1	nt	nt	nt	0.62	-1.1	nt	1.1	-36	-1
CN(C)/C=C(\C#N)C(=O)c1cccc(Oc2ccc(Br)cc2)c1	nt	nt	nt	0.72	2.4	nt	3.5	-9	-6
CCSc1nnc(NC(=O)CCC2CCCCC2)s1	6	0	-2.4	0.65	3.1	i	2.7	-2	-2
C[C@H]1CN([C@@H](C)CO)C(=O)CCCn2cc(nn2)CO[C@@H]1CN(C)C(=O)Nc1ccc(C(C)(C)C)cc1	6&-2	2&-2	3.1&-0.7	nt	1.9	i	nt	nt	nt
Cc1ccc(S(=O)(=O)NCCNC(=O)CN2CCCC2)cc1	nt	nt	nt	0.69	-2.2	nt	1.1	-14	2
CC1(C2CC(C(F)(F)F)n3nc(C(=O)O)cc3N2)CC1 (stereo unspecified)	17	10	2.2	0.7	4.4	nt	0.5	3	3
Cc1ccc2c(O)c(Cc3ccccc3)c(=O)[nH]c2n1	7	-2	0.7	nt	2.5	i	nt	nt	3
O=[N+]([O-])c1ccc(-c2nc(Nc3cccc(O)c3)c3ccccc3n2)cc1	-43	-37	-3.1	0.65	3.9	i	0.6	-2	25
Cc1cc(C)n(CC(=O)c2cccc([N+](=O)[O-])c2)n1	1	-8	-0.4	0.69	-2.5	i	-0.5	-4	-12
C/C(=N/NC(=O)NC12CC3CC(CC(C3)C1)C2)c1ccccc1	6	5	-0.7	nt	0.5	i	nt	0	0
CCCn1c(SCC(=O)c2cc(OC)ccc2OC)nc2c1c(=O)n(C)c(=O)n2C	nt	nt	nt	0.71	-0.9	nt	-5.4	nt	-2
COc1ccc(/C=N/NC(=O)c2ccccc2)cc1CN1CCN(c2ccc(F)cc2)CC1	nt	nt	nt	nt	0.6	nt	nt	11	-5
CC(=O)Nc1ccc(NC(=O)CSc2cn(CC(=O)N3CCOCC3)c3ccccc23)cc1	2	4	-2.2	0.68	-2.1	i	2.3	99*	-5
CC1CCCN(S(=O)(=O)c2ccc(C(=O)Nc3sc4c(c3C(N)=O)CCN(C)C4)cc2)C1 (stereo unspecified)	-7	7	4.1	0.67	19	i	5.1	25	-151
C/C(=N\OC(=O)c1ccc(F)cc1)c1sc(-c2ccc(Cl)cc2)nc1C	14	10	4.9	nt	2.5	i	nt	-6	-1
OCc1ccccc1-c1ccc2nncn2c1	8	8	-1.3	nt	1.7	i	nt	nt	nt
O=C1[C@H](Cc2ccccc2)NCCCC[C@H](c2ccc(Cl)cc2)N1Cc1ccc(Cl)cc1	13	-3	2.0	nt	9.3	i	5.1	nt	0
Cc1cccc2[nH]c(CN(C)Cc3nc(CC4CC4)no3)nc12	-2	1	2.3	0.66	0.7	i	-2.4	-49	6
COc1ccc(C2=NOC(C(=O)Nc3cccc(O)c3)C2)cc1 (stereo unspecified)	-8	-10	-3.2	0.61	3.1	i	5.2	12	-1
O=C(NCCCn1ccnc1)c1sc2cccc(F)c2c1Cl	nt	nt	nt	0.7	-3.6	nt	-3.0	-3	-9
CCN1CCN(Cc2ccc(OCc3ccccc3)c(OC)c2)CC1	nt	nt	nt	0.71	0.9	nt	-2.0	nt	16
O=C(OCc1nc2ccccc2s1)c1ccc(Br)o1	-41	-63	-6.9	0.7	-0.6	i	4.2	3	2
CCC(=O)N1CCCC(C)(C(=O)Nc2ccc(OC(F)F)cc2)C1 (stereo unspecified)	12	14	0.9	nt	-2.6	i	nt	nt	nt
COC(=O)C1CCN(C(=O)c2ccc(SC)cc2OC)CC1	nt	nt	nt	0.67	0.3	nt	-0.1	2	4
COc1ccc(C(=O)N(c2ccccc2)C2C=CS(=O)(=O)C2)cc1 (stereo unspecified)	5	11	-0.1	0.66	2.6	nt	1.3	-5	16
COc1ccc(NC(=O)c2ccccc2NC(=O)CN2CCCCCC2)cc1	-2	-3	-2.5	0.7	1.6	i	-1.3	20	3
Cc1ccc(NC(=O)c2ccc(Cl)cc2[N+](=O)[O-])nc1	nt	nt	nt	0.65	1.9	nt	-6.2	-10	-13
CCN(CC(=O)N1CCOCC1)S(=O)(=O)c1ccc(Cl)cc1	-1	-6	0.1	0.73	2.7	i	5.0	-9	4
CN1CCN(C(=O)c2ccc(S(=O)(=O)N(C)c3ccccc3)cc2)CC1	19	25	2.6	nt	-6.6	i	nt	nt	nt
CCOc1ccc(CCNC(=O)c2ccc(OCc3c(C)noc3C)cc2)cc1OCC	11	5	3.9	0.63	0.2	i	0.6	0	8
Cc1ccc2cc(C#N)c(N3CCCN(C(=O)C4CCCO4)CC3)nc2c1 (stereo unspecified)	nt	nt	nt	0.71	2.5	nt	-71	-6	-2
CCc1nn(CC(=O)NCCCN2CCCC2=O)c(=O)c2cc3sccc3n12	7	17	-2.2	0.73	0.6	i	2.7	-6	-11
Cn1c(SCc2cccc(Br)c2)nnc1-c1ccccn1	-35*	-18*	3.3*	0.7	-0.5	i	-0.8	-9	-22
O=C(NC1CCCCC1)c1cccc(S(=O)(=O)N2CCOCC2)c1	nt	nt	nt	0.8	3.9	nt	1.4	-10	16
O=C(Cn1nc(C(F)(F)F)c2c1CCCC2)N1CCOCC1	15	9	0.5	0.72	-3.5	i	1.0	-27	1
COc1ccc(OC)c(S(=O)(=O)NCc2cn3ccsc3n2)c1	1	1	-2.2	0.72	0.8	i	-1.6	-5	-2

Results in FGF22 binding and ALR H2O2 inh, for 2 of the compounds above:
| structure | FGF22 binding | ALR H2O2 inh |
| --- | --- | --- |
| CCCCNc1ccc(C(CC(N)=O)NC(=O)c2cc(C)cc(C)c2)cc1[N+](=O)[O-] (stereo unspecified) | i | nt |
| Cc1ccccc1C(=O)Nc1nnc(-c2ccncc2)o1 | i | 0 |

A few values from the list.
`C/C(=N\OC(=O)c1ccc(F)cc1)c1sc(-c2ccc(Cl)cc2)nc1C` @ ALR H2O2 inh: -6
`CC1(C2CC(C(F)(F)F)n3nc(C(=O)O)cc3N2)CC1` (stereo unspecified) @ Ecoli rRNA inh RFP: 2.2
`C[C@H]1CN([C@@H](C)CO)C(=O)CCCn2cc(nn2)CO[C@@H]1CN(C)C(=O)Nc1ccc(C(C)(C)C)cc1` @ Ecoli rRNA inh RFP: 3.1&-0.7

Next entries follow:
SMILES	Ecoli rRNA inh	Ecoli rRNA inh OD600	Ecoli rRNA inh RFP	E coli growth	HNF4A DNA FP	FGF22 binding	UCH37 inh	ALR H2O2 inh	Beta2AR agonist
CCOC(=O)c1ccc2nc(Nc3nc4ccc(F)cc4s3)sc2c1	12	9	-0.1	0.71	0.8	i	-220	-11	14
CCOC(=O)CSc1nc2c(sc(=S)n2Cc2ccco2)c(=O)n1-c1ccc(F)cc1	nt	nt	nt	0.79	2.5	nt	1.7	-3	-2
NC1=NC[C@@H](Cc2ccc(O)cc2)N1CCCCC1CCCCC1	-56	-80	-27	nt	2.0	i	2.5	-5	8
CNC(=S)Nc1sc2c(c1C(=O)OC)CCC2	13	16	2.0	0.63	6.0	i	2.2	-8	-2
c1ccc(-c2cc(CSc3nc4ccccc4[nH]3)on2)cc1	nt	nt	nt	0.7	3.3	nt	3.0	-23	-18
Cc1cccc(N(CC(=O)N=Nc2c(O)[nH]c3ccccc23)S(C)(=O)=O)c1C	nt	nt	nt	0.72	2.4	nt	6.5	-3	-4
CCCCCCCCC(c1nc2ccccc2[nH]1)N1CCN=C1c1cc2ccccc2[nH]1 (stereo unspecified)	-16	-16	33	nt	0.2	i	nt	nt	nt
CC1CCCC(NC(=O)COC(=O)c2cc(=O)[nH]c3ccccc23)C1C (stereo unspecified)	8	8	1.1	0.65	-0.8	i	-7.7	-11	8
O=C(Cn1cnc2ccccc2c1=O)NCCC(=O)N1CCN(c2ccccc2)CC1	nt	nt	nt	0.68	3.1	nt	2.6	96*	-3
Cc1c(Cl)cccc1NC(=S)Nc1ccc2[nH]c(=O)[nH]c2c1	1	5	-5.7	0.7	39*	i	1.3	95*	2
CCc1noc(C)c1C(=O)OCC(=O)Nc1nc(-c2ccc(F)c(F)c2)cs1	nt	nt	nt	0.66	1.3	i	3.6	-4	7
